Source: PubChem (Broad Institute)
Yeast UUG start: yeast start codon fidelity modulation; S. cerevisiae UUG-firefly luciferase reporter, luminescence/redox ratio; 0.13% of 350,000 active; activity score, % at 18.7 µM;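 active means replicate mean at a twofold rise or more, about +100% in these data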;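 further: firefly luciferase made from a UUG start codon reports start codon fidelity; reporter light over untreated wells divided by growth signal over untreated wells; some hits fall short of that in this replicate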
* hit, by the source's call. The list is partial (hit frequency here may not be typical).

SMILES | Yeast UUG start
C[C@@H](O)C#Cc1ccc([C@H]2[C@@H](CO)N3CCCCN(CC4CC4)C[C@@H]23)cc1 | 10
C[C@H](CO)N1C[C@H](C)[C@@H](CN(C)Cc2ccc3c(c2)OCO3)Oc2ccc(NC(=O)C3CCCCC3)cc2C1=O | 11
O=C(C[C@H]1CC[C@H]2[C@@H](COC[C@@H](O)CN2Cc2ccccc2)O1)N[C@@H]1CCN(Cc2ccccc2)C1 | -1
O=C(CC1CC1)N1CC[C@@H]2[C@@H](CO)Nc3ccc(-c4ccc(F)cc4)cc3[C@@H]21 | -4
O=C(O)C[C@H]1C[C@@H]2c3cc(NC(=O)Nc4ccc(F)cc4)ccc3O[C@@H]2[C@@H](CO)O1 | -18
CN1CCN(C(=O)C[C@@H]2CC[C@@H]3[C@H](COC[C@H](O)CN3Cc3cccc(-c4ccncc4)c3)O2)CC1 | -15
CCCNC(=O)N1[C@H](CO)[C@H](c2ccc(-c3ccccc3)cc2)[C@H]1CNC(C)=O | 7
COc1ccccc1NC(=O)N1CCCCN2[C@H](C1)[C@@H](c1ccc(-c3cccc(C)c3)cc1)[C@@H]2CO | 14
CCC(=O)Nc1ccc2c(c1)OC[C@H](C)N(C(=O)Cc1ccccn1)C[C@H](C)[C@@H](OC)CN(C)C2=O | 7
CO[C@H]1CN(C)C(=O)c2cc(NS(C)(=O)=O)ccc2OC[C@@H](C)N(CCC(F)(F)F)C[C@@H]1C | -2
C[C@@H]1CN([C@@H](C)CO)C(=O)c2cccc(NC(=O)Nc3ccc(F)cc3)c2O[C@H]1CN(C)Cc1ccc(C(=O)O)cc1 | 22
CCC(=O)N1C[C@@H](C)[C@@H](OC)CN(C)C(=O)c2cc(NC(=O)C3CCCCC3)ccc2OC[C@H]1C | 0
C[C@@H]1CN([C@H](C)CO)C(=O)c2cc(NC(=O)Cn3cnnn3)ccc2O[C@H]1CN(C)Cc1ccc(C(=O)O)cc1 | -10
COc1ccc(-c2ccc3c(c2)[C@@H]2[C@@H](CCN2S(=O)(=O)c2ccccc2C)[C@@H](CO)N3)cc1 | -25
O=C(Nc1cccc(Cl)c1)N1C[C@H]2[C@@H](c3ccccc31)[C@H](CO)N2Cc1ccncc1 | -12
COc1ccccc1-c1ccc([C@@H]2[C@H](CO)N3CCCCN(S(=O)(=O)c4cn(C)cn4)C[C@@H]23)cc1 | 6
CCC(=O)Nc1ccc2c(c1)C(=O)N(C)C[C@H](OC)[C@@H](C)CN(C(=O)C1CCC1)[C@H](C)CO2 | -3
C[C@@H]1CN([C@@H](C)CO)C(=O)c2cccc(NC(=O)C3CCCCC3)c2O[C@@H]1CN(C)Cc1ccncc1 | -12
COc1ccc(NC(=O)Nc2cccc3c2O[C@H](CN(C)Cc2ccncc2)[C@H](C)CN([C@@H](C)CO)C3=O)cc1 | 4
O=C(c1cccnc1)N1CCCCN2[C@H](CO)[C@@H](c3ccc(C#Cc4cccnc4)cc3)[C@@H]2C1 | -8
C[C@@H]1CN([C@@H](C)CO)C(=O)c2cc(NC(=O)CCC(F)(F)F)ccc2O[C@@H]1CN(C)C(=O)Nc1ccccc1 | 38
O=C(C[C@@H]1C[C@@H]2c3cc(NC(=O)CC4CC4)ccc3O[C@@H]2[C@@H](CO)O1)NCc1ccccc1F | -7
COCC(=O)Nc1ccc2c(c1)OC[C@H](C)N(C(=O)Cc1cccnc1)C[C@H](C)[C@H](OC)CN(C)C2=O | 14
C[C@@H]1CN([C@@H](C)CO)C(=O)c2cc(NC(=O)Nc3ccc4c(c3)OCO4)ccc2O[C@H]1CN(C)C(=O)Nc1cccc2ccccc12 | -6
C[C@H]1CN([C@@H](C)CO)C(=O)c2cc(NC(=O)CCC(F)(F)F)ccc2O[C@H]1CN(C)S(=O)(=O)c1ccccc1 | -9

Fetched by compound from the list above (4):
SMILES | Yeast UUG start
CCC(=O)Nc1ccc2c(c1)OC[C@H](C)N(C(=O)Cc1ccccn1)C[C@H](C)[C@@H](OC)CN(C)C2=O | 7
C[C@H](CO)N1C[C@H](C)[C@@H](CN(C)Cc2ccc3c(c2)OCO3)Oc2ccc(NC(=O)C3CCCCC3)cc2C1=O | 11
CO[C@H]1CN(C)C(=O)c2cc(NS(C)(=O)=O)ccc2OC[C@@H](C)N(CCC(F)(F)F)C[C@@H]1C | -2
O=C(O)C[C@H]1C[C@@H]2c3cc(NC(=O)Nc4ccc(F)cc4)ccc3O[C@@H]2[C@@H](CO)O1 | -18

Going on with the list.
SMILES | Yeast UUG start
CN1C(=O)c2cc(NC(=O)NCc3ccccc3)ccc2OC[C@@H]2O[C@H](CC(=O)NCC3CCCCC3)CC[C@@H]21 | -11
CN1C[C@H]2[C@@H](c3ccccc31)[C@H](CO)N2Cc1ccccc1Cl | 0
C/C=C/c1ccc([C@H]2[C@@H](CO)N3CCCCN(C(=O)Nc4ccc(OC)cc4)C[C@H]23)cc1 | 24
COc1ccc(CN(C)C[C@H]2Oc3ccc(NS(=O)(=O)c4ccc(F)cc4)cc3C(=O)N([C@H](C)CO)C[C@H]2C)cc1 | -5
CCCC(=O)N1C[C@@H]2[C@H](c3ccccc31)[C@@H](CO)N2C(=O)Nc1ccc(F)cc1 | 64
O=C(C1CCCC1)N1CCCCN2[C@H](CO)[C@H](c3ccc(C#CC4CC4)cc3)[C@H]2C1 | 8
CN(C)C(=O)c1cccc(-c2ccc([C@H]3[C@H]4CN(CCC(F)(F)F)CCCCN4[C@H]3CO)cc2)c1 | 4
O=C(C[C@@H]1CC[C@H]2[C@@H](COC[C@H](O)CN2C(=O)Nc2ccc(C(F)(F)F)cc2)O1)NCCc1ccncc1 | -1
CCC(=O)Nc1ccc2c(c1)OC[C@H](C)N(C(=O)Cc1ccccn1)C[C@@H](C)[C@H](OC)CN(C)C2=O | -4
C[C@H]1CN([C@@H](C)CO)C(=O)c2cc(NS(=O)(=O)c3ccc(F)cc3)ccc2O[C@@H]1CN(C)Cc1ccncc1 | 11
CCCNC(=O)C[C@H]1CC[C@H]2[C@@H](COC[C@@H](O)CN2C(=O)C2CCOCC2)O1 | -8
COc1ccc(CN(C)C[C@@H]2Oc3ccc(NC(=O)CCCN(C)C)cc3C(=O)N([C@@H](C)CO)C[C@H]2C)cc1 | -11
Cc1ccccc1CN(C)C[C@H]1OCc2cn(nn2)CCCC(=O)N([C@@H](C)CO)C[C@@H]1C | -4
CCCNC(=O)NC[C@@H]1[C@@H](c2ccc(C3=CCCCC3)cc2)[C@@H](CO)N1C(C)=O | 5
Cc1cccc(-c2ccc([C@H]3[C@H](CO)N4CCCCN(Cc5ccncc5)C[C@@H]34)cc2)c1 | -9
COCC#Cc1ccc([C@@H]2[C@H]3CN(S(=O)(=O)c4ccccc4C)CCCCN3[C@H]2CO)cc1 | -9
CCC(=O)Nc1ccc2c(c1)OC[C@@H](C)N(C(=O)CC1CC1)C[C@H](C)[C@@H](OC)CN(C)C2=O | -9
COc1ccccc1C(=O)N1C[C@H]2[C@@H](c3ccccc31)[C@@H](CO)N2CC1CCOCC1 | -2
CNC[C@@H]1Oc2ccc(NS(=O)(=O)c3ccc(Cl)cc3)cc2C(=O)N([C@@H](C)CO)C[C@@H]1C | -3
CC(C)[C@H](C)NC(=O)N(C)C[C@@H]1OCc2ccccc2-c2c(n(C)c3ccccc23)C(=O)N([C@@H](C)CO)C[C@@H]1C | 7
CN(C)C(=O)[C@@H]1[C@@H](CO)[C@@H]2Cn3c(ccc(C4=CCCCC4)c3=O)[C@H]1N2Cc1cccnc1 | -5
C[C@H](CO)N1C[C@H](C)[C@@H](CN(C)Cc2ccc(-c3ccccc3)cc2)Oc2ccc(NC(=O)c3ccncc3)cc2C1=O | -12
CO[C@@H]1CN(C)C(=O)c2ccc(NC(C)=O)cc2OC[C@H](C)N(Cc2ccncc2)C[C@H]1C | -2
CC(=O)Nc1ccc2c(c1)C(=O)N(C)[C@@H]1CC[C@@H](CC(=O)NCc3ccc(Cl)cc3)O[C@@H]1CO2 | 31
CN(C)C(=O)C[C@@H]1CC[C@H]2[C@@H](COC[C@@H](O)CN2CC2CCOCC2)O1 | -5

Three entries already listed, arranged by length of the SMILES, smallest number first:
SMILES | Yeast UUG start
CNC[C@@H]1Oc2ccc(NS(=O)(=O)c3ccc(Cl)cc3)cc2C(=O)N([C@@H](C)CO)C[C@@H]1C | -3
CCC(=O)Nc1ccc2c(c1)OC[C@H](C)N(C(=O)Cc1ccccn1)C[C@@H](C)[C@H](OC)CN(C)C2=O | -4
C[C@H]1CN([C@@H](C)CO)C(=O)c2cc(NS(=O)(=O)c3ccc(F)cc3)ccc2O[C@@H]1CN(C)Cc1ccncc1 | 11

Filtered by structure: the entries above containing a COOH group
SMILES | Yeast UUG start
O=C(O)C[C@H]1C[C@@H]2c3cc(NC(=O)Nc4ccc(F)cc4)ccc3O[C@@H]2[C@@H](CO)O1 | -18
C[C@@H]1CN([C@@H](C)CO)C(=O)c2cccc(NC(=O)Nc3ccc(F)cc3)c2O[C@H]1CN(C)Cc1ccc(C(=O)O)cc1 | 22
C[C@@H]1CN([C@H](C)CO)C(=O)c2cc(NC(=O)Cn3cnnn3)ccc2O[C@H]1CN(C)Cc1ccc(C(=O)O)cc1 | -10

Further results
SMILES | Yeast UUG start
O=C(C[C@H]1CC[C@@H]2[C@H](COC[C@@H](O)CN2C(=O)c2ccncc2)O1)NCc1cc(F)cc(F)c1 | -15
CO[C@H]1CN(C)C(=O)c2ccc(NS(=O)(=O)c3ccccc3)cc2OC[C@@H](C)N(C)C[C@H]1C | 10
CC(=O)NC[C@H]1[C@@H](c2ccc(-c3ccccc3)cc2)[C@H](CO)N1C(=O)C1CC1 | -5
C[C@@H]1CN([C@H](C)CO)C(=O)c2cccc(NC(=O)Nc3cccc4ccccc34)c2O[C@@H]1CN(C)S(=O)(=O)c1cccs1 | -13
CO[C@H]1CN(C)C(=O)c2cc(NC(=O)Nc3c(C)noc3C)ccc2OC[C@H](C)N(CC2CC2)C[C@@H]1C | -3
CN(C)CC#Cc1ccc([C@H]2[C@H]3CN(C(=O)C4CCCC4)CCCCN3[C@H]2CO)cc1 | 0
CO[C@H]1CN(C)C(=O)c2cc(NS(C)(=O)=O)ccc2OC[C@H](C)N(CCC(F)(F)F)C[C@H]1C | 2
Cc1cccc(-c2ccc([C@@H]3[C@H](CO)N4CCCCN(S(=O)(=O)c5ccccc5F)C[C@@H]34)cc2)c1 | 7
O=C(CN1CCOCC1)N1[C@H](CO)[C@H]2c3ccccc3NC[C@H]21 | -9
Cc1cccc(S(=O)(=O)N2C[C@@H](O)COC[C@H]3O[C@@H](CC(=O)N4CCN(C)CC4)CC[C@@H]32)c1 | -5
O=C(CC1CC1)N1CC[C@@H]2[C@H]1c1cc(-c3ccc(F)cc3)ccc1N[C@@H]2CO | -14
C[C@H]1CN([C@@H](C)CO)C(=O)c2cc(NC(=O)Cn3cnnn3)ccc2O[C@@H]1CN(C)Cc1ccncc1 | 8
COCC(=O)NC[C@H]1[C@@H](c2ccccc2)[C@H](CO)N1C(C)=O | 8
CO[C@@H]1CN(C)C(=O)c2ccc(NC(C)=O)cc2OC[C@H](C)N(S(=O)(=O)c2cn(C)cn2)C[C@H]1C | 16
Cc1ccccc1NC(=O)Nc1ccc2c(c1)C(=O)N(C)[C@H]1CC[C@H](CC(=O)NCC3CC3)O[C@H]1CO2 | 16
O=C(c1cccnc1)N1C[C@@H]2[C@H](c3ccccc31)[C@@H](CO)N2C(=O)Nc1ccccc1 | 23
Cc1cccc(S(=O)(=O)N2CC[C@@H]3[C@@H](CO)N(C)c4ccc(-c5ccc(C#N)cc5)cc4[C@@H]32)c1 | -4
C[C@H](CO)N1C[C@H](C)[C@H](CN(C)S(C)(=O)=O)Oc2c(NC(=O)Nc3ccc(C(F)(F)F)cc3)cccc2C1=O | 13
Cc1cc(C(=O)Nc2cccc3c2O[C@H](CN(C)Cc2ccc(C(=O)Nc4ccccc4N)cc2)[C@@H](C)CN([C@H](C)CO)C3=O)n(C)n1 | -3
C[C@@H]1CN([C@@H](C)CO)C(=O)Cc2cc(NC(=O)NC3CCCCC3)ccc2O[C@@H]1CN(C)Cc1ccc(C(=O)O)cc1 | 2
CN1C(=O)c2cc(NC(=O)NCc3ccccc3)ccc2OC[C@@H]2O[C@H](CC(=O)NCC3CCCCC3)CC[C@H]21 | 11
O=C(c1ccncc1)N1C[C@@H]2[C@H](c3ccccc31)[C@@H](CO)N2C(=O)CN1CCOCC1 | 5
C[C@@H]1CN([C@@H](C)CO)C(=O)c2cccc(NS(=O)(=O)c3ccc(F)cc3)c2O[C@H]1CN(C)C | 3
CC(C)(O)C#Cc1ccc([C@@H]2[C@@H](CO)N3CCCCN(C(=O)c4cccc(F)c4)C[C@@H]23)cc1 | 13
CO[C@@H]1CN(C)C(=O)c2ccc(NS(=O)(=O)c3cccc(Cl)c3)cc2OC[C@@H](C)N(C(=O)Cc2cccnc2)C[C@H]1C | -3

Further structures:
SMILES | Yeast UUG start
C[C@@H]1CN([C@@H](C)CO)C(=O)c2cccc(NS(=O)(=O)c3cccs3)c2O[C@H]1CN(C)C(=O)Nc1cccc2ccccc12 | -1
O=C(C[C@@H]1CC[C@H]2[C@@H](COC[C@@H](O)CN2S(=O)(=O)c2ccccc2)O1)N1CCc2ccccc2C1 | 18
O=C(NC[C@@H]1[C@H](c2ccccc2)[C@H](CO)N1Cc1ccccn1)C1CCC1 | -35
C[C@H]1CN([C@@H](C)CO)C(=O)c2cc(C#CC3CCCCC3)cnc2O[C@@H]1CN(C)C(=O)C1CCCCC1 | 4
CN1CCN(C(=O)C[C@H]2CC[C@@H]3[C@H](COC[C@H](O)CN3C(=O)C3CCCC3)O2)CC1 | -12
C[C@@H]1CN([C@@H](C)CO)C(=O)c2cccc(NC(=O)Nc3ccc(C(F)(F)F)cc3)c2O[C@H]1CN(C)S(=O)(=O)c1cccs1 | 0
C[C@@H]1CN([C@@H](C)CO)C(=O)Cc2cc(NC(=O)c3ccncc3)ccc2O[C@@H]1CN(C)C(=O)Nc1ccc(F)cc1 | -14
C[C@H]1CN([C@@H](C)CO)C(=O)c2cc(NC(=O)CCN3CCOCC3)ccc2O[C@H]1CN(C)C(=O)Nc1ccc(C(F)(F)F)cc1 | -18
CNC[C@@H]1Oc2ccc(NS(=O)(=O)c3ccccc3)cc2C(=O)N([C@@H](C)CO)C[C@H]1C | -11
CN1C(=O)c2cc(NS(=O)(=O)c3ccc(F)cc3)ccc2OC[C@@H]2O[C@@H](CC(=O)NCC(F)(F)F)CC[C@@H]21 | 6
